UCH37 DUB inh: blocks the human deubiquitinase UCH37; purified proteasome/UCH37, Ub-AMC cleavage fluorescence; Q9Y5K5; inhibition, % (no concentration beside the values); AID 588478; 0.33% of 330,000 active;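 active means mean of two replicates above 20%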;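 further: 0% = compound-free wells with enzyme and 100% = wells lacking proteasome; stock transfer was 100 nL into about 20 µL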
Target sequence (Q9Y5K5 whole entry, looked up): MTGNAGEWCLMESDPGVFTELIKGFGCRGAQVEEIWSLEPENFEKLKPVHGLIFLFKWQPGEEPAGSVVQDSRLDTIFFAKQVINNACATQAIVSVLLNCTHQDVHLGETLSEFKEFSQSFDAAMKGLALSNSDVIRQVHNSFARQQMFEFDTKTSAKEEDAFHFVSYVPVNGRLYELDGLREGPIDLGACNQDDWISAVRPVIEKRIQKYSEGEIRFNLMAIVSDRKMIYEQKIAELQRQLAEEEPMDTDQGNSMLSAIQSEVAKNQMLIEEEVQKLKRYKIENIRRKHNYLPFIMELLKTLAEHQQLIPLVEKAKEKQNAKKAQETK
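Test system – human UCH37 enzyme supplied as purified proteasome complex · Incubation – 30 min preincubation with enzyme, 25 min cleavage at room temperature · Detection – AMC fluorescence from Ub-AMC cleavage, excitation 355 nm, emission 460 nm · Benchmarks – no-proteasome wells (full inhibition) and compound-free wells (no inhibition)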
Starred values were filed as active, the others as inactive; i = inactive.

SMILES	UCH37 DUB inh
COc1ccc(N2C(=O)CC(S/C(N)=N/N=C(C)c3cccs3)C2=O)cc1 (stereo not given)	4.1
COc1ccccc1NC(=S)NN=C1CC(C)(C)Oc2ccc(O)cc21	-37
Cn1c(=O)n(C)c2cc(C=NNC(=O)c3ccc(Cl)cc3Cl)ccc21	2.1
C=CCNC(=S)NN=Cc1ccc(-c2cccc([N+](=O)[O-])c2)o1	5.5
Cc1ccc(C(N)=NOC(=O)C(C)c2ccc([N+](=O)[O-])cc2)cc1 (stereo not given)	0.2
COc1ccc(C=NNC(=O)c2ccc3ccccc3c2)cc1OS(=O)(=O)c1ccc(NC(C)=O)cc1	-9.3
CCN(CC)C(=O)C(=O)NN=Cc1cccc(Br)c1	3.1
CN(C)C=Nc1c(C#N)cnn1-c1nc2ccccc2s1	0.7
CC(/C=C/c1ccccc1)=NNc1ccccc1[N+](=O)[O-]	1.9
O=[N+]([O-])c1cc(S(=O)(=O)N=C(c2ccccc2)N2CCOCC2)ccc1Cl	0.0
Cc1ccsc1C=NNc1nc2ccccc2s1	-2.7
COc1cc(C=NNC(=O)C2=NNC(=O)C2C)ccc1O (stereo not given)	9.0
O=C(O)COc1ccc(C=NO)cc1Br	2.0
Cc1ccc(C=Nn2c(COc3ccccc3)n[nH]c2=S)cc1	4.2
CC(=NNS(=O)(=O)c1ccc(C)cc1)c1c[nH]c2ccccc12	1.5
CC(=NNC(=O)Cn1nc(C)c([N+](=O)[O-])c1C)c1ccc(O)cc1	-2.4
CN(C)c1nc(Oc2ccc(C=NO)cc2)nc(N(C)C)n1	1.2
O=C(NN=Cc1cc([N+](=O)[O-])ccc1O)c1ccc2c(c1)OCCO2	6.1
Cn1cccc1C=NNC(=O)c1ccc[n+]([O-])c1	15
COc1ccc(CNC(=O)CC(C)=NNC(=O)COc2ccccc2)cc1	0.4
COc1ccc(N(CC(=O)NN=Cc2ccc(F)cc2)S(=O)(=O)c2ccccc2)cc1	3.4
CCNC(=S)NN=C(C)c1cc2ccccc2o1	8.6
Cc1ccc(NN=Cc2c(O)cc(C)oc2=O)cc1	11
CC(=NNc1cc(Cl)nc(C)n1)c1ccccc1	2.7
CCN(CC)Cc1c(C(=O)NN=Cc2ccc(C)o2)nnn1-c1nonc1N	10
Fc1ccc(NN=C2CC(c3ccccc3)Oc3ccccc32)c(F)c1 (stereo not given)	2.7
Cc1ccc(-c2c(C(=O)NN=Cc3ccc(C)o3)nnn2-c2nonc2N)cc1	-14
COc1ccc(C=NNC(=O)Cn2nc(C)c([N+](=O)[O-])c2C)cc1	1.4
C=C(C)C1CC=C(C)C(=NNC(=O)COc2ccc(C)cc2)C1 (stereo not given)	4.6
O=C(CON=Cc1ccccc1O)N1CCc2ccccc21	5.4
CCCOc1ccc(-c2c(C(=O)NN=Cc3ccc(C)o3)nnn2-c2nonc2N)cc1	-173
CCNc1nc(NCC)nc(NN=C(C)c2ccc(OC)cc2)n1	2.1
COc1ccc(C=NNC(=O)c2ccccc2F)cc1COc1ccc(F)cc1F	-0.2
CCOC(=O)c1[nH]c2cc(OC)c(OC)cc2c1NC(=O)CN1CCN(C)CC1	-206
COc1ccccc1/C=C/C=Nn1c(-c2ccc(C)cc2)n[nH]c1=S	3.7
CC(=NO)c1cc(Cl)ccc1O	4.9
CCn1cc(C(=O)O)c(=O)c2cc(F)c(NN=Cc3ccccc3)cc21	-21
NC(=O)NN=C1c2ccccc2-c2c(C(N)=O)cccc21	9.4
COc1cc(C=NN=C(N)c2nonc2N)ccc1O	11
CCOC(=O)C=c1sc(=Cc2ccc(C#N)cc2)c(=O)n1CC(=O)NCc1ccco1	-4.4

Gathered by group: the compounds so far containing an aryl methoxy group.
SMILES	UCH37 DUB inh
COc1ccc(N2C(=O)CC(S/C(N)=N/N=C(C)c3cccs3)C2=O)cc1 (stereo not given)	4.1
COc1ccccc1NC(=S)NN=C1CC(C)(C)Oc2ccc(O)cc21	-37
COc1ccc(C=NNC(=O)c2ccc3ccccc3c2)cc1OS(=O)(=O)c1ccc(NC(C)=O)cc1	-9.3
COc1cc(C=NNC(=O)C2=NNC(=O)C2C)ccc1O (stereo not given)	9.0
COc1ccc(CNC(=O)CC(C)=NNC(=O)COc2ccccc2)cc1	0.4
COc1ccc(N(CC(=O)NN=Cc2ccc(F)cc2)S(=O)(=O)c2ccccc2)cc1	3.4
COc1ccc(C=NNC(=O)Cn2nc(C)c([N+](=O)[O-])c2C)cc1	1.4
CCNc1nc(NCC)nc(NN=C(C)c2ccc(OC)cc2)n1	2.1
COc1ccc(C=NNC(=O)c2ccccc2F)cc1COc1ccc(F)cc1F	-0.2
CCOC(=O)c1[nH]c2cc(OC)c(OC)cc2c1NC(=O)CN1CCN(C)CC1	-206
COc1ccccc1/C=C/C=Nn1c(-c2ccc(C)cc2)n[nH]c1=S	3.7
COc1cc(C=NN=C(N)c2nonc2N)ccc1O	11

Next part:
SMILES	UCH37 DUB inh
Cc1cc(C=NO)c(C)n1-c1ccncc1	-1.6
CCCC(NC(=O)C(C)NC(=O)CON=C1C=C2CCC3C4CCC(C(C)=O)[C@@]4(C)CCC3[C@@]2(C)CC1)C(=O)O (stereo not given in full)	4.0
CS(=O)(=O)ON=C1CCCCC1c1ccc([N+](=O)[O-])cc1[N+](=O)[O-] (stereo not given)	2.8
CC(=O)Nc1ccc(NC(=O)CC(C)=NNC(=O)C(=O)N2CCCC2)cc1	1.8
O=[N+]([O-])c1ccccc1/C=C/C=Nn1c(-c2ccc(Cl)cc2)n[nH]c1=S	2.9
COc1ccc(OC)c(C=NNC(=O)CCc2n[nH]c(=O)[nH]c2=O)c1	-383
Cc1cc([N+](=O)[O-])nn1Cc1ccc(C(=O)NN=Cc2ccc(N(C)C)cc2)cc1	13
O=C(COc1ccccc1)NN=Cc1cc2c(cc1[N+](=O)[O-])OCO2	2.9
CC1=CC(=NOC(=O)/C=C/c2ccccc2)C(C)=CC1=O	2.5
O=C(NN=C/C(Br)=C/c1ccccc1)c1n[nH]c2c1CCC2	7.1
CCOC(=O)C(=NNc1cccc(Cl)c1)Sc1nnc(-c2ccc(OC)cc2)n1C	0.0
Cc1cc(C)nc(SCc2ccc(C(=O)NN=Cc3ccc(C(=O)O)cc3)cc2)n1	4.0
CC(C)C(=NNc1ccccc1[N+](=O)[O-])c1ccccc1	3.6
Cc1nc2ccccc2n1CC(=O)NN=Cc1cccnc1	3.5
O=C1C2C3C=CC(C4CC34)C2C(=O)N1N=Cc1ccc([N+](=O)[O-])s1 (stereo not given)	1.7
COc1ccc(C=Nn2cnnc2SCc2ccc(OC)cc2)cc1	0.6
Cc1ccc(C=Nn2c(C3CCCCC3)n[nH]c2=S)s1	2.9
COc1cc(C=NNC(=O)CSCc2ccc([N+](=O)[O-])cc2)cc(OC)c1OC	5.0
O=C(c1cccc2c1-c1ccccc1C2=NO)N1CCCCC1	-1.7
COc1ccccc1C=NNC(=O)c1ccc(Cn2nc([N+](=O)[O-])cc2C)cc1	6.2
O=C(NC(C(=O)NN=Cc1ccccn1)c1n[nH]c(=O)c2ccccc12)c1ccccc1 (stereo not given)	0.0
COc1cc(C(=O)ON=C2CCCc3c2ccc(OC)c3[N+](=O)[O-])cc(OC)c1OC	0.8
ON=C1CCc2nonc2C1=NO	0.1
CC(C)Oc1ccc(Br)cc1C(=O)NN=Cc1c[nH]c2ccccc12	-8.2
CCOc1cc(C=NNc2nnc(C)n2N)ccc1O	5.8
CCOc1cc(C=NNc2ncnc(Cl)c2N)ccc1O	14
CC(CCc1ccccc1)=NNC(=O)C(=O)NC(C)c1ccccc1 (stereo not given)	2.7
COC(=O)NN=Cc1ccc(-c2ccccc2Cl)o1	5.3
COc1cc(C=Nn2cnnc2)ccc1OCc1ccc(C)cc1	-2.6
Cc1ccc([N+](=O)[O-])cc1C=NNc1nnnn1-c1ccccc1	0.8
CN(C)Cc1c(C(=O)NN=Cc2cccc(OCc3ccc(F)cc3)c2)nnn1-c1nonc1N	1.4
COc1ccc(C=N/N=C2/NC(=O)C(CC(=O)NC(N)=O)S2)cc1 (stereo not given)	3.2
COc1ccc(C(=O)NN=Cc2sc(=O)n(Cc3cccc(C(=O)O)c3)c2Cl)cc1	12
CCc1ccc(C=NNC(=O)c2cc(-c3ccccc3OC)nc3ccccc23)s1	0.0
CSc1ccc(C=NN2CCN(Cc3ccccc3)CC2)cc1	0.4
COc1ccc(C=NNC(=O)CN(C2=NS(=O)(=O)c3ccccc32)c2ccccc2)cc1OC	4.3
C=CCn1cc(C=NNC(=O)c2cc3c(ccc4ccccc43)o2)c2ccccc21	-30
Cc1cc2ncn(N=Cc3cc(Br)ccc3O)c2cc1C	4.3
COc1ccc(C(=O)NN=CC2CC=CCC2)cc1OC (stereo not given)	1.3
NNC(=O)C(=NNc1ccccc1)S(=O)(=O)c1ccc(Cl)cc1	11
N#CCC(=O)NN=Cc1cc(Br)ccc1OC/C=C/c1ccccc1	3.6
O=C(NN=Cc1ccco1)c1ccc(NC(=O)C2CCCCC2)cc1	0.7
O=C(O)c1ccc(NN=Cc2ccc(-c3ccccc3)cc2)cc1	-23
CN(C)C=Nc1nc2nccc(-c3ccc(F)cc3)n2n1	i
FC(F)Oc1ccc(C=Nc2c(-c3ccc(OC(F)F)cc3)nc3n2CCS3)cc1	4.3
Clc1ccc(CON=Cc2c(-c3ccccc3)nc3n2CCS3)c(Cl)c1	-12
O=C(C=NNC(=O)c1ccccc1Br)c1ccccc1	1.6
COc1ccc(C2CC(=NO)C(C)(C)O2)cc1 (stereo not given)	1.8
COc1ccccc1-c1cc(C(=O)NN=C/C=C/c2ccccc2[N+](=O)[O-])c2ccccc2n1	6.9
N#Cc1cc(-c2ccccc2)oc1N=Cc1ccccc1O	-1.6

Ordered by value in UCH37 DUB inh (low to high): four of the compounds above
SMILES,UCH37 DUB inh
COc1ccc(C2CC(=NO)C(C)(C)O2)cc1 (stereo not given),1.8
Cc1cc2ncn(N=Cc3cc(Br)ccc3O)c2cc1C,4.3
CCOc1cc(C=NNc2ncnc(Cl)c2N)ccc1O,14
Cn1cccc1C=NNC(=O)c1ccc[n+]([O-])c1,15

Next part:
SMILES	UCH37 DUB inh
CC(=NNC(=O)c1ccc(C)s1)c1cccc(NC(=O)COc2ccc(Cl)cc2Cl)c1	-8.5
CCC(=NNc1nncc2ccccc12)c1ccc(F)cc1	5.4
CN(C)c1ccc(C=NNC(=O)C[n+]2ccccc2)cc1	15
COc1ccc(-c2nn(-c3ccccc3)cc2C=NNc2ccccn2)cc1OC	-8.8
N#Cc1c(N=Cc2ccco2)sc2c1CCC2	2.4
CCCOc1ccc(C=NNC(=O)C(=O)Nc2ccccn2)cc1	4.9
CC(C)c1c(C(=O)NN=Cc2ccc(-c3ccccc3)cc2)nnn1-c1nonc1N	-0.9
CCCCN=C1CC(C)(C)CC(=O)/C1=C(\O)CCCN1C(=O)c2ccccc2C1=O	-0.7
CC(=NNC(=S)Nc1ccccc1C)c1cc2ccccc2o1	2.4
CC(CCc1ccc2c(c1)OCO2)=NN=C(N)SC1CC(=O)N(c2ccccc2F)C1=O (stereo not given)	-0.9
O=[N+]([O-])c1ccc(Cl)c(C=Nn2c(-c3ccncc3)n[nH]c2=S)c1	4.5
O=C(NN=Cc1ccco1)c1ccc(OCc2ccccc2)cc1	4.1
Cc1nn(C)cc1C=NNC(=O)c1sc2ccccc2c1Cl	9.5
Cc1cccc(C=Nn2c(-c3cc(-c4ccccc4)n[nH]3)n[nH]c2=S)c1	3.5
O=S(=O)(NN=Cc1ccc2c(c1)OCO2)c1ccc(Br)cc1	5.8
Cc1cc(=O)[nH]c(NN=CC(C)c2ccccc2)n1 (stereo not given)	6.4
COc1ccc(N2CC(C(=O)NN=Cc3ccc([N+](=O)[O-])cc3)CC2=O)cc1 (stereo not given)	1.2
Cn1cccc1C=NN1CCN(Cc2ccc(Cl)cc2)CC1	3.6
O=C(CON=Cc1ccc(Cl)cc1Cl)NNC(=O)c1ccc(Cl)cc1Cl	-0.9
O=C(NN=Cc1ccc(Cl)cc1Cl)c1sccc1-n1cccc1	4.0
COc1ccc(C=NNc2nn3cnnc3c3ccccc23)cc1	6.3
O=C(COc1cccc2ccccc12)NN=Cc1ccco1	1.3
CC(Cc1ccccc1)=NNC(=O)CNC(=O)c1ccccc1Cl	0.4
NC(=S)NN=C1CC(n2nnnc2-c2ccccc2)C2COC1O2 (stereo not given)	2.8
CC(C)(C)c1cc(C(=O)NN=Cc2ccc([N+](=O)[O-])s2)n[nH]1	1.9
COc1cccc(C=NNc2nc(C)cc(=O)[nH]2)c1OC	-5.1
CC1=C(C(=O)Nc2ccccc2)C(c2ccc(C)o2)n2c(sc(=Cc3ccco3)c2=O)=N1 (stereo not given)	-0.9
CN(C)c1ccc(C=NNC(=O)c2sccc2-n2cccc2)cc1	-7.7
O=C(NN=Cc1ccc(COc2ccc(Br)cc2)o1)c1ccco1	1.9
Cc1ccc(C=Nn2c(C3CCCCC3)n[nH]c2=S)o1	7.0
CCOC(=O)C1=C(O)/C(=C\c2ccc(CNC(=O)C(=O)Nc3ccc(C)c(C)c3)o2)N=C1C	-1.2
O=C(CC=NOCc1ccc([N+](=O)[O-])cc1)Nc1ccccc1	2.9
COc1ccc2[nH]cc(C(=O)CN3CCN(C/C=C/c4ccccc4)CC3)c2c1	1.5
O=C(NN=C1CCc2ccccc21)c1ccccc1O	13
CC(C)(C)c1ccc(C=NNc2cccc(C(=O)O)c2)cc1	6.8
O=C(Cn1ccc(C(F)(F)F)n1)NN=Cc1cccs1	2.4
CCOC(=O)c1c(NC(C)=O)sc(C(C)=NNc2ccc(C(=O)O)cc2)c1C	5.9
Nc1ccc(C(=O)NN=Cc2cc(N=Nc3cccc4ccccc34)ccc2O)cc1	6.6

Screens: PubChem BioAssay, ICCB-Longwood Screening Facility, Harvard Medical School

A portion of the library, so the mix of outcomes need not match the whole.
